DUX4 inh: DUX4-mediated transcription inhibition; 293T-iDUX4 ZSCAN4-Gaussia luciferase reporter, 24 h; stronger effect = lower value; activity change, negative = inhibition, % (test concentration not listed); actives 0.8% (n = 37,000); AID 1224904;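 active means -10% or lower and over 25 points stronger than a control reporter; inconclusive means -10% or lower with a smaller gap; inactive means above -10%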;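 further: 0% = median of neutral control wells and -100% = median of positive control wells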
DUX4 inh difference: recorded beside DUX4 inh, whose call it bears; Gaussia minus Italica difference, %; measured here: selective DUX4 reporter inhibition;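 worked out from the two reporters; negative = selective loss of the DUX4 reporter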
DUX4 inh control: recorded beside DUX4 inh, whose call it bears; activity change, negative = inhibition, %; measured here: Italica tet-on control reporter;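 0 = neutral control and -100 = positive control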
* = called active by the depositor; ? = inconclusive; · = not tested or not shown; & = joins results of further samples. An excerpt; rates above refer to the full screens.

SMILES	DUX4 inh	DUX4 inh difference	DUX4 inh control
C/C=C/c1ccc2c(c1)O[C@H](CN(C)Cc1ccc(C(=O)O)cc1)[C@@H](C)CN([C@@H](C)CO)S2(=O)=O	-2.3	-4.1	1.7
CCS(=O)(=O)N1CC(=O)N2[C@H](CO)[C@@H](c3ccc(-c4cccc(F)c4)cc3)[C@@H]2C1	-3.1	0.8	-3.8
CNC[C@H]1Oc2c(NS(=O)(=O)c3cn(C)cn3)cccc2C(=O)N([C@H](C)CO)C[C@H]1C	2.4	3.2	-0.8
CO[C@H]1CC[C@@H]2CCOc3ccc(C#N)cc3C(=O)N(C)C[C@@H](c3ccccc3)CC(=O)N(C)C[C@H]1O2	-4.6	-3.9	-0.7
COc1cccc(C(=O)N2C[C@H]3[C@@H](c4ccccc42)[C@@H](CO)N3C(C)=O)c1	0.2	-2.6	2.8
CN(C)C(=O)C[C@H]1C=C[C@H](NC(=O)C2CCOCC2)[C@@H](CO)O1	3.9	5.0	-1.1
CO[C@@H]1CN(C)C(=O)c2cc(NC(=O)Nc3ccccc3F)ccc2OC[C@H](C)N(CCC(F)(F)F)C[C@H]1C	?	·	·
CCN1[C@@H]2c3ccc(-c4ccncc4)c(=O)n3C[C@H]1[C@H](CO)[C@H]2C(=O)NCc1ccccc1	-5.0	-4.8	-0.2
O=C(Nc1ccc(F)cc1)N1C[C@@H]2[C@H](c3ccccc31)[C@@H](CO)N2C(=O)c1ccccn1	2.2	-1.2	3.4
CO[C@@H]1CN(C)C(=O)c2cc(NC(=O)c3ccc4c(c3)OCO4)ccc2OC[C@H](C)NC[C@H]1C	1.2	0.2	1.0
O=C(C[C@@H]1CC[C@H]2[C@@H](COC[C@H](O)CN2CC2CCOCC2)O1)N1CCOCC1	4.8	-0.7	5.4
CN(C)C(=O)c1ccc(-c2ccccc2[C@@H]2[C@@H](C#N)N(C(=O)C3CC3)[C@@H]2CO)cc1	23.0	13.6	9.4
C[C@@H]1CN([C@@H](C)CO)C(=O)c2cccc(NC(=O)c3cnccn3)c2O[C@@H]1CN(C)C(=O)Nc1ccc2c(c1)OCO2	2.5	8.6	-6.2
CCOC(=O)N(C)C[C@@H]1OCc2ccccc2-c2c(n(C)c3ccccc23)C(=O)N([C@@H](C)CO)C[C@H]1C	4.2	7.2	-3.1
O=C(C[C@@H]1C[C@@H]2c3cc(NC(=O)c4ccc5c(c4)OCO5)ccc3O[C@@H]2[C@@H](CO)O1)NCC1CC1	5.0	7.7	-2.6
COc1ccc(S(=O)(=O)N2CC[C@@H]3[C@@H](CO)Nc4ccc(Br)cc4[C@@H]32)cc1	3.0	6.8	-3.9
COc1cccc(S(=O)(=O)N2C[C@@H](O)COC[C@@H]3O[C@H](CC(=O)NCCCN4CCOCC4)CC[C@H]32)c1	5.1	-1.1	6.3
Cc1ccc(NC(=O)Nc2ccc3c(c2)C(=O)N(C)[C@@H]2CC[C@@H](CC(=O)NCC(F)(F)F)O[C@@H]2CO3)cc1	4.2	3.5	0.8
COc1ccccc1CNC(=O)C[C@@H]1C[C@H]2c3cc(NS(=O)(=O)c4ccc(F)cc4)ccc3O[C@H]2[C@H](CO)O1	?	·	·
C[C@@H]1CN([C@H](C)CO)C(=O)CCCn2cc(nn2)CO[C@H]1CN(C)C(=O)Cc1ccccc1	0.9	-4.2	5.1
O=C(CCN1CCCCC1)NCC[C@H]1CC[C@@H](NS(=O)(=O)c2cccc(Cl)c2)[C@@H](CO)O1	3.2	7.4	-4.2
CS(=O)(=O)N1[C@@H](CO)[C@@H](c2ccccc2)C12CN(C(=O)C1CC1)C2	0.1	-2.7	2.7
COc1ccccc1CN1[C@@H]2c3cccc(=O)n3C[C@@H]2[C@@H](CO)[C@@H]1C(=O)NCc1ccccc1	-2.5	2.0	-4.5
C[C@@H]1CN([C@H](C)CO)C(=O)CCCn2nncc2CO[C@@H]1CN(C)C(=O)Nc1ccnc(N2CCOCC2)c1	2.0	4.2	-2.2
COc1ccc(CN2C[C@@H](O)COC[C@H]3O[C@@H](CC(=O)N4CCc5ccccc5C4)CC[C@@H]32)cc1	-6.1	3.2	-9.3
CN1C[C@@H]2[C@H](c3ccccc31)[C@H](CO)N2C(=O)C1CCOCC1	-3.0	-2.6	-0.4
CN(C)C(=O)[C@@H]1[C@@H](CO)[C@@H]2Cn3c(ccc(-c4ccncc4)c3=O)[C@@H]2N1Cc1ccccc1F	8.3	5.5	2.7
COc1ccc2c3c([nH]c2c1)[C@H](CO)N(C(=O)c1ccccc1)CC31CN(C(=O)CC2CC2)C1	9.8	0.9	8.9
O=C(NCC[C@@H]1CC[C@@H](NS(=O)(=O)c2ccc(F)cc2)[C@H](CO)O1)c1ccc2c(c1)OCO2	-0.8	2.8	-3.7
CCNC(=O)[C@@H]1[C@@H](CO)[C@@H]2Cn3c(ccc(-c4ccccc4)c3=O)[C@@H]2N1Cc1ccccn1	-0.1	-1.0	0.9
CC(C)NC(=O)Nc1ccc2c(c1)C(=O)N([C@H](C)CO)C[C@@H](C)[C@@H](CN(C)C(=O)C1CCCCC1)OCCCC[C@@H](C)O2	8.8	6.2	2.6
O=C(Nc1ccccc1F)N1C[C@@H]2[C@H](c3ccccc31)[C@@H](CO)N2C(=O)C1CCCCC1	-1.7	0.0	-1.7
CO[C@@H](C(=O)N(C)C[C@H]1OCc2ccccc2-c2c(n(C)c3ccccc23)C(=O)N([C@H](C)CO)C[C@H]1C)c1ccccc1	-0.4	9.8	-10.2
O=C(C[C@H]1CC[C@@H](NC(=O)c2ccc(F)cc2)[C@H](CO)O1)NCCc1ccccc1	1.0	0.2	0.9
C[C@H](CO)N1C[C@H](C)[C@H](CN(C)C(=O)Nc2ccc(C(F)(F)F)cc2)OCc2cnnn2CCCC1=O	-0.1	-1.9	1.8
CN(C)CC(=O)Nc1ccc2c(c1)[C@@H]1C[C@@H](CC(=O)NCc3cccc(F)c3)O[C@@H](CO)[C@@H]1O2	12.4	6.7	5.6

Full records, quoted from the list:
Profile of COc1ccc(CN2C[C@@H](O)COC[C@H]3O[C@@H](CC(=O)N4CCc5ccccc5C4)CC[C@@H]32)cc1 = DUX4 inh = -6.1; DUX4 inh difference = 3.2; DUX4 inh control = -9.3
Profile of O=C(C[C@H]1CC[C@@H](NC(=O)c2ccc(F)cc2)[C@H](CO)O1)NCCc1ccccc1 = DUX4 inh = 1.0; DUX4 inh difference = 0.2; DUX4 inh control = 0.9

Next structures follow:
SMILES	DUX4 inh	DUX4 inh difference	DUX4 inh control
COc1ccc(S(=O)(=O)Nc2ccc3c(c2)C(=O)N([C@@H](C)CO)C[C@H](C)[C@@H](CN(C)C(=O)Nc2c(C)noc2C)OCCCC[C@@H](C)O3)cc1	3.1	6.6	-3.5
CN1CCN(C(=O)C[C@@H]2CC[C@@H]3[C@H](COC[C@H](O)CN3C(=O)c3ccc(F)cc3)O2)CC1	0.9	2.6	-1.7
COc1ccc(CN2C[C@H](C)[C@H](OC)CN(C)C(=O)c3cc(NC(=O)C4CC4)ccc3OC[C@@H]2C)cc1	-1.4	-7.4	6.0
Cc1cccc(S(=O)(=O)N2CC[C@@H]3[C@H](CO)Nc4ccc(C#Cc5cccc(F)c5)cc4[C@@H]32)c1	-0.6	-8.3	7.8
N#Cc1cccc(-c2ccc(C3[C@@H]4CN(C(=O)c5ccc6c(c5)OCO6)C[C@H]3N4)cc2)c1 (some centres not stated)	?	-1.9	5.6
CC(C)NC(=O)N(C)C[C@@H]1OCCCC[C@H](C)Oc2ccc(NS(C)(=O)=O)cc2C(=O)N([C@@H](C)CO)C[C@H]1C	-4.4	-6.5	2.1
O=C(C1CCCCC1)N1C[C@@H]2[C@H](c3ccccc31)[C@H](CO)N2C(=O)Cc1ccccn1	1.0	-4.2	5.2
O=C(C[C@@H]1C=C[C@@H](NC(=O)Cc2ccccn2)[C@H](CO)O1)NCCc1ccncc1	4.5	-1.0	5.5
COc1cccc(S(=O)(=O)N(C)C[C@@H]2OCc3ccccc3-c3c(n(C)c4ccccc34)C(=O)N([C@@H](C)CO)C[C@H]2C)c1	?	·	·
COc1ccccc1-c1ccc(C2[C@@H]3CN(C(=O)c4cccnc4)C[C@H]2N3)cc1 (some centres not stated)	9.6&12.6	8.6&19.1	1.1&-6.4
N#C[C@@H]1[C@H](c2ccc(-c3cncnc3)cc2)[C@@H](CO)N1C(=O)CN1CCOCC1	-1.2	-0.4	-0.8
COc1cccc(C#Cc2ccc3c(c2)[C@@H]2[C@@H](CCN2C(=O)c2ccccc2F)[C@@H](CO)N3C)c1	?	·	·
CN(C)C(=O)c1cccc(-c2ccc([C@H]3[C@@H](CO)N4CCCCN(S(C)(=O)=O)C[C@H]34)cc2)c1	34.7	20.5	14.1
COc1ccc(NC(=O)Nc2ccc3c(c2)C(=O)N([C@@H](C)CO)C[C@@H](C)[C@H](CN(C)S(=O)(=O)c2cccs2)OCCCC[C@H](C)O3)cc1	1.4	-5.2	6.6
CCCN(C)C[C@@H]1OCCCC[C@H](C)Oc2ccc(NS(=O)(=O)c3ccc(C)cc3)cc2C(=O)N([C@H](C)CO)C[C@@H]1C	-0.9	-6.1	5.3
C[C@H]1CCCCO[C@H](CN(C)C(=O)Nc2ccc3c(c2)OCO3)[C@@H](C)CN([C@@H](C)CO)C(=O)c2cc(NS(=O)(=O)c3ccc(F)cc3)ccc2O1	1.8	0.2	1.6
C[C@H]1CN([C@@H](C)CO)C(=O)c2cccc(NC(=O)c3nc4ccccc4s3)c2O[C@@H]1CN(C)Cc1ccc(C(F)(F)F)cc1	-0.2	-3.4	3.2
C[C@H]1CN([C@@H](C)CO)C(=O)c2ccccc2-c2ccccc2CO[C@H]1CN(C)C(=O)Cc1ccccc1	2.5	1.4	1.2
CNC(=O)C[C@@H]1CC[C@@H]2[C@@H](COc3ccc(NS(=O)(=O)c4ccc(F)cc4)cc3C(=O)N2C)O1	-0.6	-5.2	4.6
O=C(CC(F)(F)F)N1C[C@@H]2[C@H](c3ccccc31)[C@@H](CO)N2C(=O)C1CCOCC1	-1.4	-1.7	0.3
COCC(=O)N1CC2(CCN(Cc3ccccc3)CC2)c2c([nH]c3cc(OC)ccc23)[C@@H]1CO	?	·	·
CCS(=O)(=O)Nc1ccc2c(c1)C(=O)N(C)[C@H]1CC[C@H](CC(=O)NCCOC)O[C@@H]1CO2	1.8	1.2	0.6
CC(=O)N(C)C[C@@H]1[C@H](c2ccc(-c3ccccc3)cc2)[C@H](CO)N1C(=O)C1CC1	2.5	3.4	-0.9
CCCNC(=O)[C@H]1[C@H](CO)[C@H]2Cn3c(ccc(-c4ccncc4)c3=O)[C@@H]1N2C(=O)CC1CC1	-1.8	-1.0	-0.9

Among those listed so far, 2 have an NH in an aromatic ring.
SMILES	DUX4 inh	DUX4 inh difference	DUX4 inh control
COc1ccc2c3c([nH]c2c1)[C@H](CO)N(C(=O)c1ccccc1)CC31CN(C(=O)CC2CC2)C1	9.8	0.9	8.9
COCC(=O)N1CC2(CCN(Cc3ccccc3)CC2)c2c([nH]c3cc(OC)ccc23)[C@@H]1CO	?	·	·

The results go on.
SMILES	DUX4 inh	DUX4 inh difference	DUX4 inh control
COc1ccccc1-c1ccc2c(c1)O[C@H](CN(C)Cc1ccc3c(c1)OCO3)[C@H](C)CN([C@@H](C)CO)S2(=O)=O	-2.8	-3.9	1.1
O=C(C1CCCCC1)N1CC2(C1)[C@@H](c1ccccc1)[C@@H](CO)N2C(=O)c1cccnc1	?	·	·
O=C(C[C@@H]1C=C[C@@H](NC(=O)C2CCOCC2)[C@@H](CO)O1)Nc1ccc(-c2ccccc2)cc1	1.1	4.2	-3.1
CC(=O)N(C)C[C@@H]1OCc2ccccc2-c2ccccc2C(=O)N([C@H](C)CO)C[C@@H]1C	20.0	7.0	13.0
C[C@@H]1CN([C@@H](C)CO)C(=O)c2cc(-c3ccncc3)cnc2O[C@@H]1CN(C)S(=O)(=O)c1ccccc1	-2.8	-0.3	-2.4
CN(C)CC#Cc1ccc([C@H]2[C@H]3CN(C(=O)C4CCC4)CCCCN3[C@H]2CO)cc1	15.7	22.7	-6.9
CC(=O)N1[C@H](CO)[C@@H]2c3ccccc3N(S(=O)(=O)c3ccc(F)cc3)C[C@@H]21	-0.9	-4.3	3.4
COc1ccc(S(=O)(=O)N(C)C[C@@H]2Oc3ccc(NC(=O)Cc4cn(C)c5ccccc45)cc3C(=O)N([C@@H](C)CO)C[C@H]2C)cc1	-0.1	0.5	-0.6
CCc1cnc(N2[C@H](CO)[C@@H](c3ccccc3-c3ccccc3C)[C@@H]2C#N)s1	?	·	·
COCC(=O)N1CC(=O)N2[C@H](C1)[C@@H](c1ccc(C#Cc3cccc(OC)c3)cc1)[C@@H]2CO	-3.6	7.9	-11.4
C[C@@H]1CN([C@@H](C)CO)C(=O)c2cc(NC(=O)c3ccncc3)ccc2O[C@@H](C)CCCCO[C@H]1CN(C)C(=O)Cc1ccccc1	3.2	5.1	-2.0
Cc1noc(C)c1S(=O)(=O)N(C)C[C@@H]1OCc2ccccc2-c2ccccc2C(=O)N([C@H](C)CO)C[C@H]1C	-2.4	-3.8	1.4

Not a retest: two of the compounds above.
SMILES	DUX4 inh	DUX4 inh difference	DUX4 inh control
COc1ccccc1-c1ccc2c(c1)O[C@H](CN(C)Cc1ccc3c(c1)OCO3)[C@H](C)CN([C@@H](C)CO)S2(=O)=O	-2.8	-3.9	1.1
O=C(C1CCCCC1)N1CC2(C1)[C@@H](c1ccccc1)[C@@H](CO)N2C(=O)c1cccnc1	?	·	·

Fetched by structure from the entries so far:
SMILES	DUX4 inh	DUX4 inh difference	DUX4 inh control
C[C@@H]1CN([C@@H](C)CO)C(=O)c2cc(-c3ccncc3)cnc2O[C@@H]1CN(C)S(=O)(=O)c1ccccc1	-2.8	-0.3	-2.4
O=C(CC(F)(F)F)N1C[C@@H]2[C@H](c3ccccc31)[C@@H](CO)N2C(=O)C1CCOCC1	-1.4	-1.7	0.3

High-throughput results: PubChem BioAssay, Broad Institute
